Bioassay records: PubChem, several laboratories
RecA splice inh: Mtb RecA intein splicing inhibition; inhibition, %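 (about 9 µM by stock and volumes)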; P9WHJ3; cell-free RecA intein splicing, fluorescence; actives 0.75% (n = 290,000); in the data active = inhibition above about 30%; inconclusive = no clear call, values can overlap the other calls;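 note: 0% = vehicle wells and 100% = reference inhibitor control wells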
Target sequence (P9WHJ3 whole entry, looked up, canonical isoform): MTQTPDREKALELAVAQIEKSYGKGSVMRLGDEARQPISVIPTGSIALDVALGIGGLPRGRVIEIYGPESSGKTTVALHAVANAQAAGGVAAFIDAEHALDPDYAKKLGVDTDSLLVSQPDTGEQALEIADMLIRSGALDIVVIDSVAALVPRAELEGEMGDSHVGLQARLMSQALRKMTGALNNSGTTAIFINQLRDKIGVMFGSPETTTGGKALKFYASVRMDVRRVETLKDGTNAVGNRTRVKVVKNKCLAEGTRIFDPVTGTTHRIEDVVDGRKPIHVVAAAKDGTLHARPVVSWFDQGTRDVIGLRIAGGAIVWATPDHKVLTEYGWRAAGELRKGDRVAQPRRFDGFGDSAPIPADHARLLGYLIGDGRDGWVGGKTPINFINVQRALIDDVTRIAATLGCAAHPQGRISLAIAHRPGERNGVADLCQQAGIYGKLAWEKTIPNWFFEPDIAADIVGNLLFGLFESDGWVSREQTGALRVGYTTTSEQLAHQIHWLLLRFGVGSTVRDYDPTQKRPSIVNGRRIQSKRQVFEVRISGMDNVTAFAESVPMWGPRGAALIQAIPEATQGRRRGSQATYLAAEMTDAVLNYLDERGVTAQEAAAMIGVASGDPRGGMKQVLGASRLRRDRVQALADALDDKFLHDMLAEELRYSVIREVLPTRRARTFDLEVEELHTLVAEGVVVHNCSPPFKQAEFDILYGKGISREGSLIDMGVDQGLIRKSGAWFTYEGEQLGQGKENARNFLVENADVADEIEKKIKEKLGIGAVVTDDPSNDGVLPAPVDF
YopH inh: blocks Yersinia enterocolitica YopH tyrosine phosphatase; fluorescence Ex485/Em525; actives 0.16% (n = 140,000); inhibition, %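 (about 10 µM by stock and volumes)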;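 active = inhibition of 50% or more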;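 note: controls were vehicle for no effect and minimum signal wells for full effect; inactives centre near -20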
Arbovirus anti: arbovirus infection inhibition; inhibition, % at 10 µM; arbovirus infection cell-based antiviral screen; actives 0.37% (n = 200,000);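 active = inhibition from about 30%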;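 note: bluetongue infection of BSR cells; cell survival read as ATP light after 72 h; 0% = infected wells without compound and 100% = uninfected wells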
Mtb bLac sens: beta-lactam sensitization of Mtb H37Rv. M. tuberculosis H37Rv growth with meropenem, percent inhibition; hits of this screen are not shown here. inhibition, % at 25 µM. actives 0.27% (n = 330,000). AID 434955;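 active = about 74% or more and at least 40 points above the plate without the antibiotic, then above 30% in a dose series; inconclusive = first-round hits that could not be retested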;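 note: growth measured after seven days incubation then overnight dye step; 0% = bacteria only wells and 100% = bacteria with antibiotic; twin plates without the antibiotic show which effects depend on it; some results filed as inactive read as strong as hits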
Mtb growth: M. tuberculosis H37Rv growth inhibitors, H37Rv strain (AID 1626); M. tuberculosis H37Rv growth inhibition; higher % means a stronger effect; inhibition, % at 10 µM; hits with a dose series show IC50 in µM; actives 0.95% (n = 220,000);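 active = confirmed in a dose series; inconclusive = inhibition above 80% but not taken into the dose series; inactive = below 80% or under 30% at every dose of the series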;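 note: bacteria incubated seven days before Alamar blue readout; 0% = bacteria only wells and 100% = bacteria with antibiotic wells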
Arbovirus anti repeat: also measured in Arbovirus anti; calls as there; inhibition, %; measured here: 10K subset replicate screen; many hits read low in the repeat;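 first of two repeat runs on a subset; 0% = infected and 100% = uninfected wells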
Active calls of the source: *; ? = inconclusive; · = no result given. These rows are one share of the data, so the mix of outcomes need not match the whole.

SMILES | RecA splice inh | YopH inh | Arbovirus anti | Mtb bLac sens | Mtb growth | others
COc1ccc(OC(C)C(=O)N(C)Cc2nc(-c3ccc(C)cc3)no2)cc1 (stereo unspecified) | 1.4 | · | · | -11 | ·
COc1ccccc1NC(=O)N1CCC(C(=O)c2ccc(F)cc2)CC1 | 0.5 | 56* | 5 | -5 | 2%
Cc1ccc(/C=N/NC(=O)CNC(=O)c2ccc(S(=O)(=O)N3CCCC3)cc2)o1 | 3.2 | · | 0 | -3 | -1%
COc1cccc(OC)c1C(=O)NN1CCCCC1 | 1.4 | -38 | -3 | -3 | -2%
O=[N+]([O-])c1ccc(Nc2ccc(F)cc2)cc1 | -0.4 | · | · | 2 | ·
CN1C(=O)OC(C)(C)C1=O | 12 | · | · | -5 | -9%
CNS(=O)(=O)c1ccc2nc(NC(=O)c3ccc(N4C(=O)CCC4=O)cc3)sc2c1 | -4.8 | · | 18 | -6 | -3%
COc1ccc(CN(C)C(=O)C23CC4CC(CC(C4)C2)C3)c(OC)c1 | 14 | · | · | 3 | ·
CN(C)c1cc(C(F)(F)F)nc(-c2ccccn2)n1 | 0.9 | -34 | 1 | -2 | 3%
C[n+]1cccc(CNC(=O)/C=N/O)c1 | -0.8 | -53 | 3 | -3 | -12%
O=c1c2ccccc2nc(-c2ccccc2)n1-c1cccc(O)c1 | -0.1 | · | -3 | -2 | -5%
CCn1cc(C(=O)N2CCN(c3ccccc3OC)CC2)c2cc(OC)c(OC)cc2c1=O | 0.9 | · | 6 | 2 | 5%
COc1ccc(Nc2nc(N)nc(COc3ccc(OC)cc3)n2)cc1 | 2.2 | 16 | 1 | -3 | 4%
Cc1ccc(/C=C/C(=O)NCCCN2CCN(CCCNC(=O)/C=C/c3ccc(C)cc3)CC2)cc1 | 0.2 | -23 | 0 | -7 | -7%
O=C(COC(=O)c1ccc(Br)o1)Nc1ncc(Cl)cc1Cl | 2.1 | · | -1 | -1 | -6%
CCCc1nnc(NC(=O)COC(=O)c2cc(C)nc3ccccc23)s1 | 0.4 | -43 | -3 | -8 | -4%
Nc1nnc(/C=C/c2ccccc2Cl)s1 | -0.7 | · | · | 64 | -5%
COc1cccc(C(=O)NNC(=O)Cc2ccc(Cl)cc2)c1 | 0.0 | -16 | -2 | -8 | -4%
Cc1ccc2c(N)c(C)ccc2c1 | -1.5 | -7 | -9 | -4 | -8%
CCc1cccc(C)c1NC(=O)c1ccc2nc(N3CCOCC3)sc2c1 | -4.6 | · | · | -3 | ·

Next part; it opens with the 2 that closed the last part.
SMILES | RecA splice inh | YopH inh | Arbovirus anti | Mtb bLac sens | Mtb growth | others
Cc1ccc2c(N)c(C)ccc2c1 | -1.5 | -7 | -9 | -4 | -8%
CCc1cccc(C)c1NC(=O)c1ccc2nc(N3CCOCC3)sc2c1 | -4.6 | · | · | -3 | ·
CCOC(=O)C1CCCN(CCC(=O)Nc2ccc3c(c2)CCC3)C1 (stereo unspecified) | 5.2 | -44 | 6 | 2 | -12%
CN1CCN(CC(O)COc2ccc(C34CC5CC(CC(C5)C3)C4)cc2)CC1 (stereo unspecified) | · | · | -32 | · | ?
CN(C(=O)COC(=O)c1cc([N+](=O)[O-])ccc1Cl)c1ccccc1 | -0.7 | · | · | 54 | ·
O=C(CSc1ncccc1-c1nc2ccccc2[nH]1)N1CCCCC1 | -5.7 | -7 | 6 | -12 | -15%
COc1ccc(/C=C(\C#N)C(=O)NC2CCS(=O)(=O)C2)cc1OC (stereo unspecified) | -1.9 | -26 | 5 | 0 | -3%
O=C(Cn1nnc(-c2ccccc2F)n1)Nc1ccc2c(c1)OCCO2 | 0.0 | · | · | 3 | ·
Cc1cc(C)n2nc(N)c(N=Nc3ccc(Cl)cc3)c2n1 | -1.2 | -31 | -4 | 7 | -4%
CCOc1ccc(N(CC(=O)Nc2cccc(N(C)S(C)(=O)=O)c2)S(=O)(=O)c2ccccc2)cc1 | -2.3 | -26 | -8 | -2 | 4%
C1=C(CCNc2nnnn2-c2ccccc2)CCCC1 | 2.2 | -43 | 11 | ? | -5%
O=C(NCCc1nc2ccccc2[nH]1)c1cc([N+](=O)[O-])cc([N+](=O)[O-])c1 | 0.0 | -36 | -5 | 5 | -1%
CN(CCn1ccnc1)C(=O)CC1C(=O)NCCN1Cc1ccccc1C(F)(F)F (stereo unspecified) | -1.6 | · | 3 | 4 | -7%
Cc1ccc(S(=O)(=O)NNC(=O)c2c(O)c3ccccc3[nH]c2=O)cc1 | -4.7 | · | · | -3 | -8%
CCCN1CCN(C(=O)c2cc(COc3ccc(F)cc3F)on2)CC1 | 3.3 | · | · | ? | ·
CCOC(=O)c1[nH]c(C)c(C(=O)Nc2cccc(Cl)c2C)c1C | 4.2 | -30 | -28 | · | 8%
C=CC12CN(C)[C@@H]3C4CO[C@H](C[C@H]41)[C@]1(C(=O)Nc4ccccc41)[C@@H]32 (stereo partly specified) | -1.2 | · | · | -11 | -11%
Cc1ccc(C)c(OCC(=O)N2CCc3ccccc3C2)c1 | 2.5 | · | · | 1 | ·
O=C(Nc1cccnc1)C1CCCN(S(=O)(=O)c2ccccc2)C1 (stereo unspecified) | 0.7 | -30 | 4 | -11 | -2%
O=c1nc2ccccc2c2n1CC(CN1CCN(Cc3ccccc3)CC1)N2 (stereo unspecified) | 1.9 | -45 | -5 | -9 | -1%
COC(=O)COc1ccc2c(-c3cccc([N+](=O)[O-])c3)cc(=O)oc2c1 | -1.0 | -23 | 1 | 100 | ?
O=C(CCNc1ccc(Br)cc1)c1cccc([N+](=O)[O-])c1 | -4.6 | · | -16 | 49 | -4%

Pulled one by one from above:
SMILES | RecA splice inh | YopH inh | Arbovirus anti | Mtb bLac sens | Mtb growth | others
CCOc1ccc(N(CC(=O)Nc2cccc(N(C)S(C)(=O)=O)c2)S(=O)(=O)c2ccccc2)cc1 | -2.3 | -26 | -8 | -2 | 4%
CN(C(=O)COC(=O)c1cc([N+](=O)[O-])ccc1Cl)c1ccccc1 | -0.7 | · | · | 54 | ·
CCOC(=O)c1[nH]c(C)c(C(=O)Nc2cccc(Cl)c2C)c1C | 4.2 | -30 | -28 | · | 8%
Cc1cc(C)n2nc(N)c(N=Nc3ccc(Cl)cc3)c2n1 | -1.2 | -31 | -4 | 7 | -4%

Later entries
SMILES | RecA splice inh | YopH inh | Arbovirus anti | Mtb bLac sens | Mtb growth | others
Cn1c(=O)c2c(nc(-n3ccnc3)n2Cc2ccc([N+](=O)[O-])cc2)n(C)c1=O | -0.2 | -38 | 2 | 11 | -4%
CC1CCCN(C(=O)Cn2nnc(-c3ccc([N+](=O)[O-])cc3)n2)C1 (stereo unspecified) | 1.2 | · | · | -4 | ·
Cc1ccc(C(=O)Nc2ccc(S(=O)(=O)N3CCCC3)cc2)s1 | -2.8 | · | 8 | -8 | 3%
CCN(CC)S(=O)(=O)c1cccc(C(=O)N[C@H](C(=O)NCc2ccccc2F)C(C)C)c1 | 1.4 | -19 | -7 | 4 | -5%
COc1ccc2c(c1)c(C(C)=O)c(C)n2CCc1ccc(OC)c(OC)c1 | 2.8 | · | · | 2 | ·
Cc1nc(N2CCOCC2)nc(Oc2ccccc2F)c1[N+](=O)[O-] | 4.0 | · | · | 3 | 9%
C=CCOc1ccc(C=Nc2cccc(Cl)c2)c(O)c1 | 2.1 | -19 | -3 | -6 | 0%
CCOc1ccc(N2C(=O)CC(=O)NC2=O)cc1 | -2.5 | · | · | 1 | ·
Nc1oc2ccc(F)cc2c(=O)c1C=O | -0.4 | -43 | 1 | -11 | -4%
O=C(NCCNC(=O)c1ccco1)c1cccc(F)c1 | 6.5 | -38 | 13 | 0 | -8%
Cc1ccc(C)c(C(C)NC(=S)NC2CCCCC2)c1 (stereo unspecified) | 3.1 | · | · | 3 | ·
CN(C)c1ccc(C(=S)Nc2ccccc2)cc1 | -2.3 | -33 | -8 | -6 | -4%
Cc1cc(C)n2nc(CNS(=O)(=O)c3c(F)c(F)c(F)c(F)c3F)nc2n1 | 33* | · | · | -1 | ·
CC1Cn2c(CCc3ccccc3)nnc2S1 (stereo unspecified) | -0.6 | -2 | -4 | -10 | -8%
COc1ccc(S(=O)(=O)N2CCC(NC(=O)c3cccnc3)CC2)cc1 | 8.0 | · | · | -9 | ·
COc1ccc(S(=O)(=O)N2CCOCC2)cc1NC(=O)CSc1nnc(C2CC2)n1N | 0.5 | · | 9 | -4 | 7%
O=C1OC(N2CCN(C(=O)c3ccco3)CC2)c2ccccc21 (stereo unspecified) | -0.2 | -35 | -2 | 46 | -2%
O=C1C(=O)N(CCCN2CCOCC2)C(c2ccc([N+](=O)[O-])cc2)/C1=C(/O)c1ccc2c(c1)OCO2 (stereo unspecified) | -0.4 | · | · | -7 | ·
CCOC(=O)c1c(C)n(C)c2ccc(OC)c(NC(=O)CN3CCN(C(=O)c4ccco4)CC3)c12 | 1.4 | -25 | 0 | -4 | -7%
CC(C(O)c1cc(=O)c(OCc2ccccc2)co1)[N+](=O)[O-] (stereo unspecified) | -1.1 | · | · | 0 | ·
CCN(CC)CCCNC(=S)Nc1ccc(Br)cc1 | 0.6 | · | 2 | -8 | -3%
CCc1ccc(CN2CCCC(CCC(=O)N3CCN(c4ccccn4)CC3)C2)o1 (stereo unspecified) | -0.5 | · | · | -2 | 2%
Cc1ccccc1S(=O)(=O)Cc1ccc(C(=O)NC2CCCC2)o1 | 0.8 | · | · | -2 | ·
CCOC(=O)CN1Cc2cccc(C(=O)O)c2C1=O | -5.5 | -20 | 6 | -3 | -6% | Arbovirus anti repeat=2
O=c1[nH]c2cc3ccccc3cc2nc1C(F)(F)F | -0.5 | · | -1 | 0 | -4%
CCN(CC)C(=O)c1ccc(Oc2ccc([N+](=O)[O-])cc2Cl)cc1 | 4.2 | · | -3 | -5 | 2%
Clc1ccc(-n2ncc3c(NCc4ccc5c(c4)OCO5)ncnc32)cc1 | 7.1 | -2 | -1 | -3 | 7%
O=C(Nc1nnc(SCC(=O)N2CCOCC2)s1)c1ccccc1 | -1.4 | -27 | 1 | 2 | -10%
COc1ccc(N2CCN(C(=O)CN(c3ccccc3)S(=O)(=O)c3ccc(OC)cc3)CC2)cc1 | -2.8 | 2 | -2 | -3 | 6%
Cc1ccc(C)c(S(=O)(=O)N2CCCCC2CCNC(=O)C(=O)NCc2cccnc2)c1 (stereo unspecified) | -0.5 | · | · | -1 | ·
COc1cc(NC(=O)C2CC(c3ccccc3O)=NO2)c(OC)cc1Cl (stereo unspecified) | -7.3 | · | · | -3 | ·
COC(=O)c1ccccc1NC(=O)CSc1nnc(-c2cccnc2)n1C | -0.8 | -37 | 4 | -3 | -2%
CC1CCC(C(=O)c2c(O)c3ccccc3oc2=O)CC1 (stereo unspecified) | 3.2 | -15 | -7 | 100 | -11%
O=C(COc1ccc(Cl)cc1)N1CCN(C/C=C/c2ccccc2)CC1 | 10 | 3 | -8 | 86 | 0%
CCOC(=O)C1(Cc2ccccc2)CCCN(C2CCCC2)C1 (stereo unspecified) | -2.1 | · | -2 | 1 | -10%
CNC(=O)CSc1nc(SC)ns1 | -0.4 | · | 12 | -6 | 1%
COc1c(C)c2c(c(O)c1C/C=C(\C)CCC(=O)O)C(=O)OC2 | -0.7 | · | · | -7 | -6%
CCOc1ccc(NC(=O)N2CCC(NC(=O)C(Cc3cccc(F)c3)NC(C)=O)CC2)cc1 (stereo unspecified) | -0.9 | · | · | -4 | ·
CCOc1ccc(N(Cc2cc3cc(OC)ccc3[nH]c2=O)S(C)(=O)=O)cc1 | 3.3 | -51 | -5 | 7 | -6%
Cn1c(N)c(Sc2ccccc2[N+](=O)[O-])c(=O)n(C)c1=O | 0.8 | · | · | -1 | ·
Cc1ccc(OCCCC(=O)Nc2nccs2)cc1 | 1.9 | 8 | 5 | 2 | 9%
CCOC(=O)N1CCC(=NNc2nc(C)cc(=O)[nH]2)CC1 | -12 | · | 9 | -6 | -8%
O=C(O)C/C=C(\NC(=O)OCc1ccccc1)C(=O)OCc1ccccc1 | 1.7 | · | -3 | 1 | 13%
O=c1c2c(nc3cc(-c4ccccc4)[nH]n13)CCC2 | 0.9 | -34 | 6 | 16 | -9%
COc1cccc(-n2c(C)nc3ccccc3c2=O)c1 | -1.8 | -34 | 10 | -5 | 12%
CCOC(=O)C1(CC2CC2)CCN(C(=O)c2cc(C)nc3ccc(CC)cc23)CC1 | 6.0 | · | -4 | 12 | 1%
Cc1c(Cc2ccccc2)c(=O)oc2cc(OCC(=O)NCc3ccccn3)ccc12 | -1.1 | · | · | 1 | ·
Cc1nc(COC(=O)c2ccc(S(=O)(=O)N3CCCC3)cc2)cs1 | 1.1 | -35 | 2 | -5 | -5%
O=C(Cn1cnc2ccccc2c1=O)Nc1nnc(C2CC2)s1 | 0.7 | -29 | 0 | -3 | ·
COc1ccc(-n2ncc3c(N4CCN(Cc5ccccc5)CC4)ncnc32)cc1 | 5.9 | · | -3 | 97 | 40%
